# AID504770 = growth inhibitors of E. coli YBA685 in a screen for V. cholerae RctB (chromosome II replication) inhibitors; 130,000 compounds, 0.27% hits; E. coli YBA685 rctB-dependent plasmid, OD600 growth, 3 h; hits give low values; z-score (test concentration not listed); AID 504770;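 active = z-score under -2 on both plates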;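 also: wells of about 30 µL received 100 nL stock; score is relative to mean and SD of the test wells; the first replicate is given; strong numbers were not always called active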
# Ba CapD inh = blocks the Bacillus anthracis CapD enzyme; AID 492967; 140,000 compounds, 0.23% hits; z-score (concentration not given with the values); purified CapD enzyme, fluorescence intensity read-out; hits give low values; some hits fall short of the stated cut;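 active = z-score under -4 in either of two replicates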;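 also: stock transfer was 100 nL into about 40 µL; score is relative to mean and spread of the plate; one replicate is shown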
# * = called active by the depositor; i = inactive; . = no result given. The list is partial; count on the stated rates, not on these rows.
Structure	AID504770	Ba CapD inh
O=C(COC(=O)Cc1ccc(Cl)cc1Cl)NC1CCCCC1	-0.75	-0.265
COCCOC(=O)C1=C(C)N(C)C(=O)NC1c1cc(Br)c(O)c(OC)c1 (stereo not drawn)	.	-0.035
CCOc1cc(C2C(C(=O)OCC3CCCO3)=C(C)NC3=C2C(=O)CC(c2cccs2)C3)ccc1O (stereo not drawn)	.	2.77
CCOC(=O)C(C(=O)Nc1ccc(N(CC)CC)cc1)C1CCCCC1 (stereo not drawn)	2.2	-0.525
COC(=O)c1ccc2c(=O)n(CCc3ccc(S(N)(=O)=O)cc3)c(SCc3c(F)cccc3F)nc2c1	.	0.51
O=C(Nc1cccc(C(F)(F)F)c1)C(F)(F)F	1.85	0.06
COC(=O)c1ccc(S(=O)(=O)NCc2csc3ccc(Cl)cc23)n1C	-0.05	-0.37
O=C(N/C(Cn1cncn1)=N/Nc1cccc(Cl)n1)Nc1ccccc1	.	-0.905
CCN(CC)c1ncnc2c1[nH]c1ccccc12	-0.35	25.2
COc1ccc(-n2ncc3c(N4CCN(c5ccc(C(C)=O)cc5)CC4)ncnc32)cc1	.	-0.26
Cc1ccc2cc3cc(C(=O)N(C)C4CCCCC4)oc3nc2c1	1.75	1.16
COc1ccc(N2C(SC)=NC(=Nc3ccc(C)cc3)C23CCC(C(C)(C)C)CC3)cc1 (stereo not drawn)	.	-1.21
O=C(CSc1n[nH]c(=O)n1C1CC1)c1ccc(F)cc1	2.2	0.98
O=C(c1cccnc1Nc1ccccc1F)N1CCCCC1	1.1	.
O=C(O)c1ccccc1COc1ccccc1Cl	-0.5	0.52
O=C1NC(=Nc2ccccc2)c2ccccc21	0.05	-1.02
CCCN1CNc2c(c(=O)n(C)c(=O)n2C)C1	-1.1	0.33
COc1cc(C)nc(-c2csc(C)n2)n1	2	-0.405
O=C(O)/C=C/Sc1ccccc1	-1.6	.
CCOC(=O)c1cnc2ccc(OCC)cc2c1Nc1cccc(C(=O)O)c1	.	-0.325

# Overlap with the part before: seven entries, then new ones.
Structure	AID504770	Ba CapD inh
O=C(c1cccnc1Nc1ccccc1F)N1CCCCC1	1.1	.
O=C(O)c1ccccc1COc1ccccc1Cl	-0.5	0.52
O=C1NC(=Nc2ccccc2)c2ccccc21	0.05	-1.02
CCCN1CNc2c(c(=O)n(C)c(=O)n2C)C1	-1.1	0.33
COc1cc(C)nc(-c2csc(C)n2)n1	2	-0.405
O=C(O)/C=C/Sc1ccccc1	-1.6	.
CCOC(=O)c1cnc2ccc(OCC)cc2c1Nc1cccc(C(=O)O)c1	.	-0.325
COC(=O)c1[nH]c(-c2ccccc2)c(C)c1C(=O)OC	1.25	8.43
CC(=O)Nc1ccc(Oc2ccccc2)cc1	-0.85	.
CC(=O)NCCCc1nc2ccccc2n1Cc1ccccc1C	-0.6	0.395
O=C(CSCc1ccc(F)cc1)NC1CCCCC1	-0.2	0.465
N#Cc1c(-c2ccc(Cl)cc2)ccnc1Oc1cccc(C(F)(F)F)c1	.	0.1
CCCn1c(SCC(=O)NCc2ccc(Cl)cc2)n[nH]c1=O	-0.15	.
Cc1oc2cc(O)ccc2c(=O)c1-c1nc2ccccc2s1	0.1	i
CCOC(=O)c1cc(-c2ccccc2)sc1NC(=O)COC(=O)C1CC(=O)N(Cc2ccco2)C1 (stereo not drawn)	0.1	.
CCCCCC(Cl)C(=O)OC1CCC2(C)C(=CCC3C2CCC2(C)C(C(C)CCCC(C)C)CCC32)C1 (stereo not drawn)	.	-0.135
CCN(CC)CCOc1ccc2c(c1)C(=NNC(=O)C(C)(C)C)c1cc(OCCN(CC)CC)ccc1-2	.	-0.365
CCOC(=O)CCN1C(=O)/C(=C/c2ccc(C)cc2)SC1=S	-0.35	0.155
CCOC(=O)C1C(=O)NC(SCC(=O)Nc2ccccc2CC)=C(C#N)C1c1ccccc1Cl (stereo not drawn)	.	-0.55
Cc1onc(-c2c(Cl)cccc2Cl)c1CSc1nncn1C(C)(C)C	0.4	1
O=C(CCN1CCc2ccccc2C1)Nc1ccc(F)c(F)c1	-0.35	.
COC(=O)C(C)NC(=O)CNS(=O)(=O)c1ccc(Br)cc1 (stereo not drawn)	.	-0.02
COc1ccc(CN(CCC(c2ccc3c(c2)OCO3)c2ccccc2OC)C(=O)c2ccco2)cc1 (stereo not drawn)	0.8	-0.375
O=S1NN(c2ccccc2)S(=O)NN1c1ccccc1 (stereo not drawn)	-0.95	0.225
Cc1c(-c2csc(-c3ccc4c(c3)OCCO4)n2)cnn1-c1ccccc1	-0.45	12.9
CCCS(=O)(=O)c1c(S(=O)(=O)CCC)c2c(N)cccn2c1C(=O)c1ccc(F)cc1	.	-0.405
CCCN=Cc1c(O)n(C2CCCCC2)c(=O)n(C2CCCCC2)c1=O	-1.1	-0.345
CS(=O)(=O)N(CC(=O)N1CCCC1)c1ccc2c(c1)OCO2	-0.75	.
CCC(=O)NCCCc1nc2ccccc2n1Cc1ccccc1C	-0.45	0.295
COc1ccc2cc(NC(=O)c3cccc(C(F)(F)F)c3)c(=O)oc2c1	.	9.7
CCOC(=O)C1CCN(CC(O)C(F)(F)F)CC1 (stereo not drawn)	-0.1	-0.29
Clc1cncc(Cl)c1N/N=C/C1CC2C=CC1C2 (stereo not drawn)	.	0.23
O=C(Cn1nnc(-c2ccccc2F)n1)N1CCCCC1	1.4	0.27
Cc1oc(-c2ccccc2)cc1C(=O)Nc1ccccc1	0.5	0.03
Cc1cccc(C(=O)Nc2ccc3nc(SCC(=O)Nc4c(C)n(C)n(-c5ccccc5)c4=O)sc3c2)c1	.	-0.59
O=C(NCc1nnc(SCC(=O)N2CCc3ccccc32)n1-c1cccc(C(F)(F)F)c1)c1cccs1	.	-1.08
CCC(=O)N1c2ccccc2NC2=C(C(=O)CC(c3ccccc3)C2)C1c1ccc([N+](=O)[O-])cc1 (stereo not drawn)	.	-0.915
CC(=O)NC1CCCc2c1[nH]c1ccc(C)cc21 (stereo not drawn)	0.15	-0.03
Cc1[nH]c2ccccc2c1/C=N/c1c(-c2ccco2)nc2ccccn12	-0.95	0.505
NC(=O)c1cc(S(=O)(=O)N2CCCC2)ccc1OCc1nc(-c2ccccc2)no1	0.55	.
Cc1cc(Br)ccc1NC(=S)Nc1ccc2ccccc2c1	.	1.45
CN(C)CCN1C(=O)c2oc3ccc(F)cc3c(=O)c2C1c1cccs1 (stereo not drawn)	-1.15	.
CC1CCN(S(=O)(=O)c2ccc3ncn(CC(=O)N(C)Cc4ccccc4)c(=O)c3c2)CC1	-0.55	-0.395
O=S(=O)(Cc1ccccc1)CC(O)(c1ccccc1)c1ccccc1	.	-0.26
O=C(NCc1nc(-c2ccccc2)no1)C12CC3CC(CC(C3)C1)C2	1	0.055
COCc1cc(C)nc2sc3c(=O)n(C(C)(C)C)nnc3c12	0.15	0.65
Nc1nc2nonc2nc1N1CCCCC1	.	-2.42
Cc1noc(C)c1C(=O)OCc1cc(F)cc2c1OC(c1ccccc1)OC2 (stereo not drawn)	-2.15	.
Cc1cccc(N=C2NC(=O)CS2)c1	-0.65	.
Cc1ccc(F)cc1NC(=O)N1CCCN(c2ccc(C(F)(F)F)cn2)CC1	1.9	3.85
N#Cc1oc2ccccc2c1NC(=O)COC(=O)Cc1cccc(C(F)(F)F)c1	0.75	.
Cc1nn(-c2ccccc2C(=O)O)c(=O)c2ccccc12	-1.4	0.215
CC(C)CCNC(=O)c1c[nH]c2ccc(S(=O)(=O)N3CCC4(CC3)OCCO4)cc2c1=O	-0.35	-0.03
CSc1ccc(/C=C/C(=O)O)cc1	0.2	62.1
Cn1c(CC2Sc3ccccc3NC2=O)n[nH]c1=S (stereo not drawn)	-0.85	0.89
Cc1ccc(NC(=O)CSCc2nc3ccc(Cl)cc3n2CCO)cc1C	0.8	.
Cc1cc(NC(=O)COC(=O)c2ccc(S(=O)(=O)N3CCCc4ccccc43)cc2)no1	0.25	.
CN(C)C(=O)C1OC(C)(C)OC1C(=O)N(C)C (stereo not drawn)	-0.25	0.1
Cc1sc2ncnc(OCC(=O)N3CC(=O)Nc4ccccc43)c2c1C	-0.3	.
Nc1ccccc1C(=O)NCc1c(F)cccc1Cl	0.75	96.9
O=C(O)C(c1ccccc1)N1CCCC1 (stereo not drawn)	-1.65	.
CCOC(=O)C1=C(C)OC2(O)c3ccccc3C(=O)C12O (stereo not drawn)	-0.9	-0.33
Cc1cc(Cl)ccc1OCC(=O)OCC(=O)c1ccc[nH]1	1	.
CC(C)c1ccc(C2=CC(=O)C=CC2=O)cc1	-2.05	5.72
Cc1cc(C(F)(F)F)nc(SCC(=O)c2ccccc2)n1	0.1	-0.165
NC(=O)C1CCN(C(=O)c2ccc3c(=O)n(-c4ccccc4)c(SCc4cccc(F)c4)nc3c2)CC1	.	1.49
COc1ccc(Cl)cc1S(=O)(=O)N(C)Cc1cccnc1	.	-0.645

# Further results
Structure	AID504770	Ba CapD inh
N#CCSc1nnc(NC2CCCCC2)s1	-0.55	.
Fc1cccc(Cl)c1C=Nc1cccnc1	-0.7	.
CCOc1c(Br)cc(C(=O)N2CCC(C(N)=O)CC2)cc1OC	-1.55	.
CCOC(=O)c1cc(NC(=O)Nc2nccs2)c(C)nc1C	-0.85	.
Cc1ccc(/C=N/N=C/c2ccc(C)s2)s1	0.4	-0.46
O=C(Cn1ncc(Cl)c(Cl)c1=O)Nc1ccc(Cl)cc1	-0.55	.
O=C(NCc1ccccc1)c1ccccc1O	1.35	29.1
C=Cn1cccc1-c1ccccc1	-0.5	0.895
Cc1nc(N2CCC(C)CC2)c2c(C)c(C(=O)N3CCOCC3)sc2n1	0.75	0.105
COC(=O)CSC1=NC(=O)/C(=C/c2ccc(OC)cc2)S1	-0.9	-0.885
O=C1CCC(=O)N1c1ccc(C2CCCCC2)cc1	-0.1	-0.975
CCOC(CCn1c(SCc2cc(=O)n3ccccc3n2)nc2ccccc2c1=O)OCC	-0.05	0.16
Cc1nn(CCSc2cc(Cl)ccc2Cl)c(=O)c(C#N)c1C	0.5	.
COc1ccc(COCC(O)CN2CCC(CN3C(=O)c4cccc5cccc(c45)C3=O)CC2)cc1OC (stereo not drawn)	.	76.3
COC(=O)c1ccc(Cn2c(O)c(N=O)c3ccccc32)o1	0.15	5.18
CCc1ccc(NC(=O)C2CCN(C(=O)c3ccc(F)cc3)CC2)cc1	-1.45	-0.16
Cc1ccc(S(=O)(=O)N2CCCC2)cc1-c1nnc2c3ccccc3c(C)nn12	-0.35	-0.15
O=c1[nH]c(-c2cc(Br)ccc2OCc2ccccc2F)nc2sc3c(c12)CCCC3	.	1.96
Cc1cccc(C(=O)Nc2sc3c(c2C(=O)N2CCCC2)CCC3)c1	-0.45	0.305
CCOc1ccc(C2Nc3ccccc3NC3=C2C(=O)CCC3)cc1 (stereo not drawn)	-0.65	-0.005
CCOC(=O)N1CCN(C(=O)CCNS(=O)(=O)c2cc(Br)cnc2N)CC1	1	18.5
FC(F)(F)c1cccc(Cn2cc(-c3ccncc3)cn2)c1	.	11.4
CC(=O)N=c1sc2cc(S(C)(=O)=O)ccc2n1C	0.4	0
N#Cc1ccc(-c2csc(NC(=O)CCc3ccccc3)n2)cc1	-0.7	10.1
N#CNC1=NCN(Cc2ccccc2)CN1	-0.75	.
COc1ccc(OC)c(CCCCc2cc(OC)ccc2OC)c1	-0.55	0.64
COc1ccc(/C=C2\SC3C(C#N)=C(c4ccc(OC)cc4)C(C#N)=C(N)N3C2=O)cc1 (stereo not drawn)	-0.5	0.095
COC(=O)c1cc2ccsc2n1CC(=O)Nc1ccc(C)cc1C	0.35	-0.555
O=C(Nc1ccccc1N1CCOCC1)c1ccccc1	-0.1	0.345
Cc1[nH]n(-c2c(Cl)cc(Cl)cc2Cl)c(=O)c1C=Nc1cccc(Cl)c1Cl	.	-0.58
c1cnc(NCC2COc3ccccc3O2)nc1 (stereo not drawn)	-0.85	.
COc1ccc(-c2csc(C(=O)Nc3ccc(F)cc3)c2)cc1	.	0.105
O=C(Nc1nccs1)c1cccc(C(=O)Nc2nccs2)c1	1.2	.
COc1ccc(NC(=S)N2CCC(c3nc4ccccc4o3)CC2)c(OC)c1	0.2	.
Cc1nc2ncnn2c(C)c1Cc1cccc(C(F)(F)F)c1	-0.3	-0.725
O=S1(=O)C=C(SCc2c(F)cccc2Cl)Nc2ccccc21	.	-0.615
COc1ccc2[nH]c(C(=O)NCc3ccccc3)cc2c1	-0.05	61.3
O=C(O)CC(C(=O)Nc1ccc2ccccc2c1)N1CCOCC1 (stereo not drawn)	-0.45	.
O=C(COc1ccc(Cl)cc1)Nc1ncc(S(=O)(=O)c2ccc([N+](=O)[O-])cc2)s1	.	-0.44
c1cnc(-c2noc(C3CCNCC3)n2)cn1	.	-0.115
CC1(C)SC(C(=O)O)NC1C(=O)O (stereo not drawn)	-0.35	0.77
O/N=C(\Cc1ncc[nH]1)c1ccccc1	-0.8	.
O=C(CN(Cc1ccc2c(c1)OCO2)C(=O)c1cnsn1)NC1CCCC1	-0.4	.
COc1cc(C)c(S(=O)(=O)Nc2ccc3nc(C)sc3c2)cc1C(C)C	0.6	-0.04
CC1(C)CC(CC(=O)O)(c2ccccc2)CCO1 (stereo not drawn)	0.15	-0.115
Cc1nc2cc3c(cc2n1CC(=O)NCC(F)(F)F)OCCO3	0.1	.
